High-throughput results: PubChem BioAssay, ICCB-Longwood Screening Facility, Harvard Medical School
fixLJ activator = increases Burkholderia fixLJ two-component signaling. B. multivorans fixK-promoter GFP reporter, 18 h; active compounds read high. z-score (test concentration not listed). hit rate 0.3% among 29,000;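 active means replicate mean overnight rise in green fluorescent reporter signal, 3 or more SD over negative controls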;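 further: score is relative to vehicle wells of the plate; 300 nL library stock went into each well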
* hit, by the source's call; & = joins results of further samples. Not all compounds are listed. The share of hits here may be higher or lower than overall.

How did CCOc1ccc(NC(=O)CCS(=O)(=O)c2ccc(Br)s2)cc1 do in these assays?
fixLJ activator: -1.38

How did Cc1cccc(NC(=O)CSc2nc(C)c(Cc3ccccc3)c(=O)[nH]2)c1 do in these assays?
fixLJ activator: -1.27

What do the screens show for `CCc1ccccc1NC(=O)c1nnn(-c2ccc(F)cc2)c1C`?
fixLJ activator: 1.33

How did Cc1ccc(NC(=O)c2c(C)oc3ccc(O)c(CN4CCOCC4)c23)c(C)c1 do in these assays?
fixLJ activator: 0.16

How did CCc1ccc(S(=O)(=O)c2cn(CC(=O)Nc3cccc(C)c3)c3ccc(Cl)cc3c2=O)cc1 do in these assays?
fixLJ activator: -1.88

What do the screens show for `CCOc1cc(C2c3c(oc4ccccc4c3=O)C(=O)N2Cc2ccc(OC)cc2)ccc1O` (stereo not given)?
fixLJ activator: -1.37

Results for CCc1nc2nc(C)c(NS(=O)(=O)c3ccc(C)cc3)c(=O)n2[nH]1 ?
fixLJ activator: -1.41

Results for C[C@H]1CC2C([C@@H](O)C[C@@]3(C)C2CC[C@]3(O)C(=O)CO)[C@@]2(C)C=CC(=O)C=C12 (stereo not given in full) ?
fixLJ activator: -0.65

What do the screens show for `COc1ccc(Cn2c(-c3ccc(O)c(OC)c3)n[nH]c2=O)cc1`?
fixLJ activator: -1.25

What do the screens show for `Cc1ccccc1NC(=O)Cn1c(=O)n(CCCC(=O)NCc2ccc3c(c2)OCO3)c(=O)c2ccccc21`?
fixLJ activator: -0.55

How did CCCCC(=O)Nc1cccc(-c2nc3ncccc3o2)c1C do in these assays?
fixLJ activator: -0.27

Results for CCCOc1ccc(C(=O)Nc2cc(-c3nc4cc(C)cc(C)c4o3)ccc2C)cc1 ?
fixLJ activator: -0.66

Results for Cc1cc(C2CCCCC2)n(O)c(=O)c1 ?
fixLJ activator: -2.23

How did O=C(N1CCC(CO)C(O)C1)C1(S(=O)(=O)c2ccccc2)CC1 (stereo not given) do in these assays?
fixLJ activator: -0.42

How did O=C(Cn1ncc2c3ccccc3n(Cc3ccc(Cl)cc3)c2c1=O)NCCCc1ccccc1 do in these assays?
fixLJ activator: 1.31

Structures listed so far containing four or more nitrogen atoms, in the order listed:
What do the screens show for `CCc1ccccc1NC(=O)c1nnn(-c2ccc(F)cc2)c1C`?
fixLJ activator: 1.33

Results for CCc1nc2nc(C)c(NS(=O)(=O)c3ccc(C)cc3)c(=O)n2[nH]1 ?
fixLJ activator: -1.41

What do the screens show for `Cc1ccccc1NC(=O)Cn1c(=O)n(CCCC(=O)NCc2ccc3c(c2)OCO3)c(=O)c2ccccc21`?
fixLJ activator: -0.55

How did O=C(Cn1ncc2c3ccccc3n(Cc3ccc(Cl)cc3)c2c1=O)NCCCc1ccccc1 do in these assays?
fixLJ activator: 1.31

Structures shown so far containing an NH in an aromatic ring, in the order listed:
How did Cc1cccc(NC(=O)CSc2nc(C)c(Cc3ccccc3)c(=O)[nH]2)c1 do in these assays?
fixLJ activator: -1.27

Results for CCc1nc2nc(C)c(NS(=O)(=O)c3ccc(C)cc3)c(=O)n2[nH]1 ?
fixLJ activator: -1.41

What do the screens show for `COc1ccc(Cn2c(-c3ccc(O)c(OC)c3)n[nH]c2=O)cc1`?
fixLJ activator: -1.25

Further records
How did CCN(CC)C(CNC(=O)CCNC(=O)c1ccccc1F)c1ccco1 (stereo not given) do in these assays?
fixLJ activator: -0.05

What do the screens show for `COc1ccccc1CNC(=O)c1cc2cc3ccc(Cl)cc3nc2o1`?
fixLJ activator: -0.34

What do the screens show for `COc1ccccc1-c1nnc(C2CCN(C(=O)c3ccccc3C)CC2)o1`?
fixLJ activator: -1.32

What do the screens show for `CC(=O)N1CCc2[nH]cnc2C12CCN(C(=O)CN1CCCCCC1=O)CC2`?
fixLJ activator: 1.33

How did CCCCN(CCCNC(=O)c1c(C)oc2nc[nH]c(=O)c12)Cc1ccccc1 do in these assays?
fixLJ activator: -0.47

What do the screens show for `Cc1oc(-c2ccc(Cl)cc2)nc1CN1CCCC(C(=O)NCc2ccccc2)C1` (stereo not given)?
fixLJ activator: -2.07

Results for CCCCN(C)CC(O)Cn1cc(/C=C/C(=O)c2ccc(OCC)cc2)c2ccccc21 (stereo not given) ?
fixLJ activator: -5.2

How did COc1ccc(NC(=O)c2oc3ccccc3c2NC(=O)c2cc(=O)c3c(C)cc(C)cc3o2)cc1 do in these assays?
fixLJ activator: -0.88

Results for CC(C)c1ccc(OCC(=O)N(Cc2ccc(N(C)C)cc2)C2CCS(=O)(=O)C2)cc1 (stereo not given) ?
fixLJ activator: -4.04

Results for CCc1noc(CN(CC)C(=O)CC2C(=O)Nc3cc(C)cc(C)c32)n1 (stereo not given) ?
fixLJ activator: 1.55

What do the screens show for `Cc1cc(C(C)(C)C)cc(C)c1CC1=NCCN1`?
fixLJ activator: -0.14

Results for CS(=O)(=O)CC[C@@H](C(=O)NCCc1ccccc1)N1Cc2ccccc2C1=O ?
fixLJ activator: -1.59

Results for Cc1cc(CC(=O)N(C)Cc2cc(-c3ccccn3)no2)on1 ?
fixLJ activator: -0.33

What do the screens show for `CCn1c(CN2CCN(c3cccc(Cl)c3)CC2)nc2c1c(=O)[nH]c(=O)n2C`?
fixLJ activator: 0.38

How did Cc1ccc2nc(-c3ccc(Cl)c(NC(=O)c4cccc([N+](=O)[O-])c4C)c3)oc2c1 do in these assays?
fixLJ activator: -0.99

Results for CSc1ncc(Cl)c(C(=O)N(Cc2ccc(C(C)C)cc2)C2CCS(=O)(=O)C2)n1 (stereo not given) ?
fixLJ activator: -3.08

How did COc1ccc(CNC(=O)c2cnc3sc4cc(OC)ccc4n3c2=O)cc1 do in these assays?
fixLJ activator: -1.27

What do the screens show for `O=C(Nc1sc2c(c1C(=O)Nc1cccc(Cl)c1)CCCC2)c1cccs1`?
fixLJ activator: 0.89

What do the screens show for `Cc1c(Cl)cccc1-n1c(CCC(=O)O)ccc1-c1cccs1`?
fixLJ activator: -2.39

How did CC(CNC(=O)Cn1ncc2c3ccccc3n(Cc3cccc(Cl)c3)c2c1=O)c1ccccc1 (stereo not given) do in these assays?
fixLJ activator: -5.14

How did COc1cc(NC(=O)c2nc3ccccc3nc2C)cc(OC)c1OC do in these assays?
fixLJ activator: -1.17

Results for Cc1cc(C)n2c(Nc3ccc(Cl)cc3)c(-c3ccsc3)nc2n1 ?
fixLJ activator: 1.45

Results for Cc1cc(C)c(Cn2c3ccccc3c3cnn(CC(=O)NCc4cccs4)c(=O)c32)c(C)c1 ?
fixLJ activator: -0.87

Results for Cn1c(=O)c2ccccc2n2c(CCC(=O)N3CCN(c4cccc(Cl)c4)CC3)nnc12 ?
fixLJ activator: -1.86

Results for Cc1cccc(NC(=O)Nc2ccc(Br)cc2)n1 ?
fixLJ activator: -0.12

How did COc1cc2c(cc1OC)C1(CCN(C(=O)c3cc(C)n(C)n3)CC1)OCC2 do in these assays?
fixLJ activator: 1.22

Results for Cc1ccc(-c2nn(CCC(=O)Nc3ccc(Cl)c(Cl)c3)c(=O)c3ccccc23)cc1 ?
fixLJ activator: -1.49

Results for CCCC1COCCN1C(=O)Nc1ccc2c(c1)N(C)C(=O)CO2 (stereo not given) ?
fixLJ activator: 0.07

Results for CCCOc1ccc(C(=O)N(Cc2ccc(Cl)cc2)Cc2ccco2)cc1 ?
fixLJ activator: -0.03

Results for COc1ccc(CNC(=O)CCNS(=O)(=O)c2cccc3nsnc23)cc1 ?
fixLJ activator: -0.44

How did Cc1ccccc1CN1C(=O)C(O)(c2c[nH]c3ccccc23)c2cc(Cl)ccc21 (stereo not given) do in these assays?
fixLJ activator: -2.14

Results for OCC(O)CSc1nnc(C2CCNCC2)n1Cc1ccccc1 (stereo not given) ?
fixLJ activator: 0.43

Results for COCCn1cnnc1CN(C)C(=O)c1cccc2ccnn12 ?
fixLJ activator: -1.58

Results for O=S(=O)(NCc1ccccc1)NC(CCn1cncn1)c1ccccc1 (stereo not given) ?
fixLJ activator: -2.58

How did Cc1cccc(COc2ccc(-c3cc(C(F)(F)F)n4nc(C)cc4n3)cc2)c1 do in these assays?
fixLJ activator: -3.07

How did Cc1ccc(CCNC(=O)CN(c2ccc(C)cc2)S(=O)(=O)N(C)C)cc1 do in these assays?
fixLJ activator: 0.6

How did Cc1ccc(NC(=O)Cn2cnc3sc(C)c(S(=O)(=O)N4CCN(c5ncccn5)CC4)c3c2=O)cc1F do in these assays?
fixLJ activator: -0.89

What do the screens show for `CCCCOC(=O)c1c(C)oc2ccc(NS(=O)(=O)c3ccc(F)cc3C)cc12`?
fixLJ activator: -1.04

What do the screens show for `CCOC(=O)c1ccc(Nc2nc(C)cc(C)n2)cc1`?
fixLJ activator: -1.05

Results for CC(=O)c1ccc(N2CCN(c3nc4c(S(=O)(=O)c5ccccc5)nnn4c4ccc(Cl)cc34)CC2)cc1 ?
fixLJ activator: 0.23

What do the screens show for `CCCCOc1cccc(C(=O)N(Cc2sccc2C)C2CCS(=O)(=O)C2)c1` (stereo not given)?
fixLJ activator: -1.98

How did COc1ccc(N2CCN(C(=O)CCn3c(=O)[nH]c4cc(OC)c(OC)cc4c3=O)CC2)cc1 do in these assays?
fixLJ activator: -0.5

Results for O=C(CC1CCc2ccccc21)NCCc1csc(-c2ncccn2)n1 (stereo not given) ?
fixLJ activator: -0.24

What do the screens show for `C#CC(C)(C)NS(=O)(=O)c1cc(-c2nnc(Nc3ccc(C)cc3)c3ccccc23)ccc1C`?
fixLJ activator: -1.88

How did Cn1c(CN2CCCCC2)nc2cc(NC(=O)c3ccc(Cl)cc3)ccc21 do in these assays?
fixLJ activator: -1.92

How did Cc1ccc(CN(C(=O)Cc2cccc(OCCN)c2)C2CCCC2)s1 do in these assays?
fixLJ activator: -1.72

What do the screens show for `N[C@@H](CC(=O)N1CCn2c(nnc2C(F)(F)F)C1)Cc1cc(F)c(F)cc1F`?
fixLJ activator: -0.28

Results for Cc1noc(C)c1S(=O)(=O)N(CC(=O)NCc1ccccc1Cl)c1ccc(C(C)C)cc1 ?
fixLJ activator: -0.5

How did COc1cc(NC(=O)CN2C(=O)C(c3ccc(C)cc3)=NC23CCCCC3)cc(OC)c1 do in these assays?
fixLJ activator: -0.29

What do the screens show for `O=C(Nc1ccc2nc3n(c(=O)c2c1)CCCCC3)c1cccc(C(F)(F)F)c1`?
fixLJ activator: -3.49

What do the screens show for `COc1ccc(C(=O)N2CCC(c3nc(-c4ccc(S(=O)(=O)N5CCCC5)cc4)no3)CC2)cc1`?
fixLJ activator: -1.84

How did O=C(CCn1cncn1)N1CCC(c2nccn2Cc2cccnc2)CC1 do in these assays?
fixLJ activator: -1.7

Results for COc1ccc2c(c1)CCOC21CCN(C(=O)c2nn(C)cc2Cl)CC1 ?
fixLJ activator: -2.03

Results for CCNC(=O)C1CC(N)CN1C(=O)c1ccc(OC)cc1O (stereo not given) ?
fixLJ activator: -1.42

What do the screens show for `Cc1ccc2c(c1)cc1c(=O)n(Cc3ccccc3Cl)nc(C)n12`?
fixLJ activator: -1.04

Results for CCOc1ccccc1C(=O)NC1(C(F)(F)F)C(=O)Nc2c1c(=O)[nH]c(=O)n2-c1ccc(F)cc1 (stereo not given) ?
fixLJ activator: -0.98

What do the screens show for `CN1CCN(C(=O)C2C[C@@](C)(C(=O)O)N(C)C2c2ccc(Cl)cc2)CC1` (stereo not given in full)?
fixLJ activator: 0.82

How did CCc1cc(CN(C)C(=O)CN2CC(Cc3ccccc3)CC2=O)on1 (stereo not given) do in these assays?
fixLJ activator: -1.57

What do the screens show for `Cc1ccc(-c2nc(NC(=O)CSc3cc(C)c4ccccc4n3)ns2)cc1`?
fixLJ activator: -0.03

How did CCCCNC(=O)c1nn(-c2ccc(C)cc2)c(=O)c2c1c1ccccc1n2C do in these assays?
fixLJ activator: -0.79

What do the screens show for `Cc1cc2nnc(SCC(=O)Nc3ccc(F)c(Cl)c3)n2c2ccccc12`?
fixLJ activator: -0.61

How did CCN(CC)CCOc1ccc(/C(=C(/Cl)c2ccccc2)c2ccccc2)cc1 do in these assays?
fixLJ activator: -1.05

Results for Cc1ccc(CNC(=O)c2cn(C)c3ccc(S(=O)(=O)N4CCC(C)CC4)cc3c2=O)cc1 ?
fixLJ activator: -2.32

How did COc1ccc2nc(CCNC(=O)c3cc(C(F)F)[nH]n3)[nH]c2c1 do in these assays?
fixLJ activator: -1.55

How did CCSc1ncc(Cl)c(C(=O)Nc2ccc(S(=O)(=O)N3CCC(C)CC3)cc2)n1 do in these assays?
fixLJ activator: -0.18

What do the screens show for `CC(COc1ccccc1)N(CCCl)Cc1ccccc1` (stereo not given)?
fixLJ activator: -1.01&-1.82

How did CCSc1ccc(C(=O)NCCc2nc(C3CC3)no2)s1 do in these assays?
fixLJ activator: -0.72

How did O=C(Nc1ccc2nn(-c3ccc(F)cc3)nc2c1)c1cccc2c(Cl)cccc12 do in these assays?
fixLJ activator: -2.36

Results for Cc1nn(C(C)C(=O)N2CCN(c3ccc(Cl)cc3)CC2)c(=O)c2cc3occc3n12 (stereo not given) ?
fixLJ activator: -1.67

What do the screens show for `CCC(=O)N1CCc2cc(S(=O)(=O)NC(C(=O)Nc3cc(OC)cc(OC)c3)C(C)C)ccc21` (stereo not given)?
fixLJ activator: -0.1

How did CCOC(=O)c1c(C)c(-c2ccccc2)n(CC(=O)Nc2cc(C)ccc2OC)c1C do in these assays?
fixLJ activator: -1.99

How did CCn1cnc2cc(NCc3ccc(N(C)C)cc3)ccc21 do in these assays?
fixLJ activator: 0.11

What do the screens show for `Cc1cccc(NC(=O)CSc2nc(-c3cccs3)cc(C(F)(F)F)c2C#N)c1`?
fixLJ activator: -0.75

What do the screens show for `CCc1cc(C(=O)N2CCCC(c3nccn3Cc3ccccn3)C2)on1` (stereo not given)?
fixLJ activator: -0.26

Results for O=C(CCc1ccncc1)N1CCCC2(CCc3cn[nH]c32)C1 (stereo not given) ?
fixLJ activator: -1.27
